PINK1 expr mod = modulators of PINK1 expression | PINK1 immunofluorescence, high-content cytometry, 24 h | Potency, µM (top dose mostly 76.6 µM), without a hit: at the highest dose activation (PINK1 increase), hits mostly activators | 410,000 compounds, 0.2% hits | AID 624263; active = well fitted activation curve with a large enough effect; inconclusive = small, poorly fitted or top-dose-only effect; inactive = flat fitted curve, though single readings scatter; cell line not stated here;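 note: potency is the fitted concentration of half-maximal effect; % of control where 0% means no effect; nearly all actives have a fitted effect of over 65% in size; a mitochondrial uncoupler was the plate control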
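PINK1 protein level read as immunofluorescence by microplate cytometer in a fixed, stained stable cell line after 24 h exposure to five compound concentrations, with CCCP as control.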
TRPML1 ag = agonists of human TRPML1 channel; Q9GZU1; TRPML1-expressing cells, Ca2+ dye fluorescence, FDSS; host cell line not named in the record; reference of the full effect not given here; activation, % (test concentration not listed); 410,000 compounds, 0.12% hits; AID 624414; in the data active = activation above about 50%; inconclusive = about 30% to 50%; inactive = below about 30%; note: 0% is about no effect; the text of the record puts the active cut at 80%
Target sequence (Q9GZU1 whole entry, looked up): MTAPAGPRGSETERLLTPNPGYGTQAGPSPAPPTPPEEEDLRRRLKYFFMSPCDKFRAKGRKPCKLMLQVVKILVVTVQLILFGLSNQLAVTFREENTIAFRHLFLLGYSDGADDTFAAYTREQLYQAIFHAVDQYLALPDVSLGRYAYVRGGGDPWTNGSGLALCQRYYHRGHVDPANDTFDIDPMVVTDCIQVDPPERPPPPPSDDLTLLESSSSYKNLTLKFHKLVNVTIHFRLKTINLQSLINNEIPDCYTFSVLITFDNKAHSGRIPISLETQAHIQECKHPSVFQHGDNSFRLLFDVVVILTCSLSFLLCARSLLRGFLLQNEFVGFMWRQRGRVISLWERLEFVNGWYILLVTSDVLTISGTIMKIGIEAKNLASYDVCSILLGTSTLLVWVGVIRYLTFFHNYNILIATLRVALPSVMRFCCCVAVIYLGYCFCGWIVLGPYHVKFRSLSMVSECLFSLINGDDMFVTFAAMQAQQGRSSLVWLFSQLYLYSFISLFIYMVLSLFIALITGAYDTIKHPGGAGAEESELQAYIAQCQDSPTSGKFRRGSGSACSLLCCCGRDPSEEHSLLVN
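Calcium fluorescence on an FDSS kinetic reader gave the read-out. Tet-induced TRPML1-DL cells were plated overnight, dye-loaded (Ca8 with quencher, 45-90 min, room temperature, dark), then read 110 s after compound addition, and again 110 s after 4uM final 54-4 (EC80).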
CtBP-E1A inh = CtBP/E1A binding inhibition. AlphaScreen GST-E1A/His-CtBP binding, 1536-well; stronger effect = lower value; control for the full effect not named in the record. activity change, % (no concentration beside the values). 340,000 compounds, 0.49% hits. AID 651724; in the data active means activity change below about -65%; inconclusive means about -30% to -65%; inactive means above about -30%; note: % is set by controls: 0 for no effect and ±100 for the full control effect
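Homogeneous bead-based format: GST-tagged E1A captured on glutathione donor beads, His-tagged CtBP on nickel acceptor beads; compounds precede bead addition by 2 h at 37 °C.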
TRPML1 blocker = blocks the human TRPML1 channel | TRPML1-inducible cells, Ca2+ dye fluorescence, FDSS; stronger effect = lower value; inhibition of EC80 agonist-evoked calcium signal | activity change, negative = inhibition, % (no concentration beside the values) | 390,000 compounds, 0.02% hits | AID 624415; in the data active means activity change below about -50%; inconclusive means about -30% to -50%; inactive means above about -30%;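 note: stimulus is agonist 54-4 at its EC80 concentration; % is set by controls: 0 for no effect and ±100 for the full control effect; compound concentration not given in the record; the text of the record puts the active cut at -80%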
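TRPML1-DL cells, Tet-induced overnight (~16 h, 37 °C) at 1,500 cells/well, were loaded with Ca8 no-wash dye plus quencher for 45-90 min at room temperature. Compounds were pinned during FDSS kinetic reading; agonist 54-4 at EC80 (4 uM final) then added.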
D2 ag = agonists of human D2 dopamine receptor (beta-arrestin); AID 624465; 360,000 compounds, 0.084% hits; DiscoveRx PathHunter D2 beta-arrestin, luminescence, 90 min; 100% = 57 uM dopamine signal; P14416; activation, % (concentration not given with the values); in the data active = activation above about 40%; inconclusive = about 15% to 40%; inactive = below about 15%; note: the text of the record calls up to 30% inactive
Target sequence (P14416 whole entry, looked up): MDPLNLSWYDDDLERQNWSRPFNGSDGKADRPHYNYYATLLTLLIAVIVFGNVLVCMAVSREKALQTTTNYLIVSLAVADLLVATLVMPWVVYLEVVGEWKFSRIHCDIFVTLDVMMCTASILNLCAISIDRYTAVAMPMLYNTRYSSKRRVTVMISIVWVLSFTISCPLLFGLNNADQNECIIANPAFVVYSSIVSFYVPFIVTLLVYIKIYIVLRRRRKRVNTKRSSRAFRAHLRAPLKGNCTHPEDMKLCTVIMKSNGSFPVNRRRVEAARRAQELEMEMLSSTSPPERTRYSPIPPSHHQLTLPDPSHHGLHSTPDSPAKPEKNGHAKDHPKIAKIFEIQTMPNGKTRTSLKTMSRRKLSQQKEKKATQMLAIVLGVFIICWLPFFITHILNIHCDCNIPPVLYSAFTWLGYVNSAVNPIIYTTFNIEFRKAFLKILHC
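Agonist mode: compounds alone added to overnight-plated D2 PathHunter cells for 90 min at 37 C, with 57 uM final dopamine (EC100) defining full response. Beta-arrestin recruitment detected by chemiluminescent reagent, read after 1 h at ambient temperature.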
Six1-Eya2 inh = blocks human Six1 binding to Eya2; AlphaScreen GST-Six1/His-Eya2 binding, biochemical; stronger effect = lower value; control for the full effect not named in the record; activity change, % (concentration not given with the values); 360,000 compounds, 0.56% hits; AID 651725; in the data active = activity change below about -65%; inconclusive = about -30% to -65%; inactive = above about -30%; note: % is set by controls: 0 for no effect and ±100 for the full control effect
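AlphaScreen with GST-Six1 and His-Eya2 (5X mix: 250 nM and 500 nM), glutathione donor and nickel acceptor beads; buffer 50 mM Tris pH 8.0, 300 mM NaCl, 1 mM TCEP; 1 h at 37 C in the dark.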
The depositor's hits bear a star; ? = inconclusive; nt = not tested or not shown; [ ] = dose if it differs, or a comment.

SMILES	PINK1 expr mod	TRPML1 ag	CtBP-E1A inh	TRPML1 blocker	D2 ag	Six1-Eya2 inh
CCOC(=O)C1CCN(C(=O)CN(c2ccc(OC)cc2)S(=O)(=O)c2c(C)nn(C)c2C)CC1	-0.6%	-0.2	-9	17	-5.9	9
CCN1C(=O)C(CC(=O)Nc2ccccc2)N(Cc2ccccn2)C1=S (stereo not drawn)	3.5%	-0.8	2	-9	0.6	10
Cc1noc(C)c1CN(C(=S)NC1CC2CCC1C2)c1ccccc1 (stereo not drawn)	4.2%	17	5	-11	-2.5	23
C/C(=N\NC(N)=S)c1ccc2c(c1)OCCO2	0.8%	0.2	0	-12	-10	-6
CC(=O)Nc1ccc(NC(=O)Cc2sc(C)nc2-c2ccc(C)cc2)cc1	0.8%	0.0	1	1	-2.3	3
O=C(CCC1N=C2c3ccccc3N=C(SCc3ccc(F)cc3)N2C1=O)NCc1cccs1 (stereo not drawn)	1.9%	-0.5	nt	-4	nt	nt
CCc1nc2ccc(C(=O)N(C)CCCN(C)C)cn2c1N(CC)CCOC	0.6%	0.1	9	-12	-4.3	3
COC(=O)n1c(=O)oc2ccccc21	-1.4%	1.2	3	7	0.4	0
COc1ccccc1NC(=O)c1sc(NC(=O)c2ccco2)c(C#N)c1C	-5.8%[38.3 µM]	0.7	5	-2	-2.0	0
CCOC(=O)C1(C)CCCCN1C(=O)c1cccs1 (stereo not drawn)	0.2%	0.1	0	-4	-2.0	8
CC(=O)Nc1ccc(S(=O)(=O)N(C)CC(=O)OC(C)C(=O)N(C)C2CCCCC2)cc1 (stereo not drawn)	-1.3%	-0.1	8	-16	-5.9	5
N/C(=N\OC(=O)c1ccc([N+](=O)[O-])cc1)c1cccnc1	1.3%	0.3	-15	11	8.9	1
CC(C)c1ccc(NC(=O)CSc2nc(=O)n(CCCN3CCOCC3)c3c2CCCC3)cc1	-0.3%	1.4	2	-9	-2.7	0
CC(=NNC(=O)c1cccc(S(=O)(=O)N2CCOCC2)c1)c1ccc(Cl)cc1	4.9%	2.4	-7	-7	0.7	3
COC(=O)c1sccc1-n1cccc1C(=O)C(=O)N1CCCC1	-0.2%	-1.6	2	-3	-3.5	-2
CN(CC(=O)Nc1cccc(F)c1)C(=O)/C=C/c1ccc(S(=O)(=O)N2CCCCCC2)cc1	1.5%	0.7	2	3	-1.9	-15
Cc1nnc(SCC(=O)Nc2cc(S(=O)(=O)N3CCCC3)ccc2Cl)n1C1CC1	0.5%	1.2	nt	-9	-3.5	5
CC1(C)Cc2ccccc2-c2nnc(-c3cccnc3)n21	-0.6%	0.4	-25	-10	-4.9	-14
Cc1[nH]c(C)c2c(=O)n(-c3ccccc3)ncc12	1.0%	-0.4	-17	-6	-3.2	-10
O=C(CN1CCN(S(=O)(=O)c2ccccc2)CC1)NC(=O)NCc1ccccc1	22%	-0.8	0	2	-2.8	-1
COc1ccc(C(C(=O)NC(C)(C)C)N(C(=O)CCC(=O)Nc2cc(C)on2)c2ccc3c(c2)OCCO3)cc1 (stereo not drawn)	5.5%	0.5	-18	-3	-2.7	-12
CCOc1ccccc1NC(=O)Cn1c(=O)n(CCC(=O)NCc2ccc3c(c2)OCO3)c(=O)c2ccccc21	1.5%	0.2	nt	-8	nt	nt
O=C(NCCCCc1ccccc1)C1CCCC1	-0.1%	-1.6	-2	12	-3.7	-14
Cc1ccc(C)c(OCCC(=O)OCC(=O)NCc2ccc(F)cc2)c1	-1.3%	2.1	7	-22	-1.4	4
Cc1nc(C(C)N(C)Cc2nc(Cc3ccccc3F)no2)c(C)s1 (stereo not drawn)	1.3%	-0.2	7	-9	-1.1	13

An excerpt from further up, as a working copy:
SMILES	PINK1 expr mod	TRPML1 ag	CtBP-E1A inh	TRPML1 blocker	D2 ag	Six1-Eya2 inh
Cc1ccc(C)c(OCCC(=O)OCC(=O)NCc2ccc(F)cc2)c1	-1.3%	2.1	7	-22	-1.4	4
Cc1nc(C(C)N(C)Cc2nc(Cc3ccccc3F)no2)c(C)s1 (stereo not drawn)	1.3%	-0.2	7	-9	-1.1	13

Next section
SMILES	PINK1 expr mod	TRPML1 ag	CtBP-E1A inh	TRPML1 blocker	D2 ag	Six1-Eya2 inh
CCc1ccc(-n2c(=O)c3cccnc3n2CC(=O)NCc2ccc(F)cc2)cc1	0.4%	-0.5	nt	4	nt	nt
CCOC(=O)N1CCN(Cc2nc(-c3ccc(Cl)cc3)no2)CC1	10%	1.2	-3	-12	-1.5	0
CC(=O)N1CCCC(C)(C(=O)Nc2ccc3oc(C)nc3c2)C1 (stereo not drawn)	2.8%	-0.3	7	nt	-3.4	10
COc1cccc(NC(=O)Nc2cc(C)on2)c1	1.6%	1.2	9	6	-3.3	-5
COc1ccc(CCNC(=O)Cn2c(=O)n(CC3CCCO3)c(=O)c3ccccc32)cc1OC (stereo not drawn)	1.9%	1.7	-8	9	0.4	3
Cc1sc(NC(=O)c2c(F)cccc2F)nc1-c1ccccc1	4.9%	1.9	-10	-6	2.0	-6
COc1ccccc1NS(=O)(=O)c1ccc(NC(=O)N2CCCCC2)cc1	-0.4%	0.0	-4	33	-3.3	2
O=S1(=O)C[C@@H]2N=C(N/N=C/c3ccccc3)S[C@@H]2C1	0.1%	0.4	-6	25	-3.8	0
COc1cc(NC(=O)Nc2nc(C(N)Cc3ccc(C(F)(F)F)cc3)cs2)cc(OC)c1OC (stereo not drawn)	-1.1%	0.7	-8	nt	12	-25
COc1ccccc1N(CC(=O)NCCSC(C)(C)C)S(C)(=O)=O	-1.4%[38.3 µM]	5.6	54	77	-1.7	18
OC(COCC1COc2ccccc2O1)CN1CCN(c2ccccc2)CC1 (stereo not drawn)	-0.3%	0.0	1	14	?	5
COc1ccc(S(=O)(=O)c2c(SC)nn(CC(=O)Nc3cccc(C)c3C)c2N)cc1	-0.5%	0.0	nt	-15	nt	nt
CCn1nc(-c2ccccc2)c(-c2ccccc2)c(C(=O)Nc2nc(C)c(C(=O)N(C)C)s2)c1=O	-0.8%	1.7	nt	2	nt	nt
S=c1[nH]nc(-c2cc(-c3ccccc3)n[nH]2)n1/N=C/C=C/c1ccco1	6.3%	3.0	-12	-2	8.9	?
CCCN(CCC)Cc1c(C(=O)OCC)nnn1-c1nonc1N	-2.3%	2.3	-6	-22	-0.2	12
COc1ccccc1N(CCC#N)C(=S)Nc1ccc(S(=O)(=O)N2CCOCC2)cc1	4.1%	0.0	3	3	-1.7	-7
COC1CCCCC1NS(=O)(=O)c1ccccc1 (stereo not drawn)	1.7%	-0.7	-2	-5	1.6	2
CSc1ccc(S(=O)(=O)N2CCC(C(=O)NCc3ccncc3)CC2)cc1	-0.3%	0.1	-11	0	-3.2	-7
Cc1ccc(NC(=O)Nc2ccccc2C(=O)NCc2ccccc2)cc1	4.1%	1.1	3	-7	-0.3	-6
CC(C)OC(=O)NC(c1ccccc1)C(Cl)(Cl)Cl (stereo not drawn)	3.2%	0.6	-20	-2	-4.1	3
COc1ccccc1Cc1c(-c2ccc(C#N)cc2)nc2c3ccccc3ccn12	1.8%	2.2	33	27	4.6	24
COc1cc2c(cc1OC)C(/C=C/c1ccco1)=NCC2	3.4%	0.4	nt	-6	-0.2	2
COc1ccc(CN2C(=O)C(CC(=O)NCCCN(C)C)CC(C(=O)N(C)C)=C2C)cc1 (stereo not drawn)	4.4%	nt	1	nt	-1.9	-2
Cc1c(N2CCCC2)cc2c(c1N)C(C)(C)CC2(C)C	7.3%	-0.1	-19	-6	0.0	?
Cc1cc(OCCOc2cccc3cccnc23)c(C)cc1Cl	4.5%	1.2	3	47	-0.2	-4

Taken from above:
Six1-Eya2 inh, `CSc1ccc(S(=O)(=O)N2CCC(C(=O)NCc3ccncc3)CC2)cc1` = -7
D2 ag, `CCOC(=O)C1(C)CCCCN1C(=O)c1cccs1` (stereo not drawn) = -2.0
TRPML1 blocker, `CCCN(CCC)Cc1c(C(=O)OCC)nnn1-c1nonc1N` = -22

Pulled by compound from the list above, seven records:
SMILES	PINK1 expr mod	TRPML1 ag	CtBP-E1A inh	TRPML1 blocker	D2 ag	Six1-Eya2 inh
C/C(=N\NC(N)=S)c1ccc2c(c1)OCCO2	0.8%	0.2	0	-12	-10	-6
Cc1nc(C(C)N(C)Cc2nc(Cc3ccccc3F)no2)c(C)s1 (stereo not drawn)	1.3%	-0.2	7	-9	-1.1	13
CC(=NNC(=O)c1cccc(S(=O)(=O)N2CCOCC2)c1)c1ccc(Cl)cc1	4.9%	2.4	-7	-7	0.7	3
COc1ccccc1NC(=O)c1sc(NC(=O)c2ccco2)c(C#N)c1C	-5.8%[38.3 µM]	0.7	5	-2	-2.0	0
O=S1(=O)C[C@@H]2N=C(N/N=C/c3ccccc3)S[C@@H]2C1	0.1%	0.4	-6	25	-3.8	0
COc1ccccc1N(CCC#N)C(=S)Nc1ccc(S(=O)(=O)N2CCOCC2)cc1	4.1%	0.0	3	3	-1.7	-7
CC(=O)Nc1ccc(S(=O)(=O)N(C)CC(=O)OC(C)C(=O)N(C)C2CCCCC2)cc1 (stereo not drawn)	-1.3%	-0.1	8	-16	-5.9	5

The list continues.
SMILES	PINK1 expr mod	TRPML1 ag	CtBP-E1A inh	TRPML1 blocker	D2 ag	Six1-Eya2 inh
OCCN1CCN(C(=S)NCCc2ccccc2)CC1	-2.6%	0.2	10	12	-1.1	2
COc1ccc(C(=O)O/N=C(\N)Cc2ccc(Cl)cc2)cc1OC	-1.6%	-0.3	-3	9	13	-4
O=C(OCC(=O)N1CCCc2ccccc21)C1CCN(S(=O)(=O)c2cccs2)CC1	3.1%	-0.1	-12	16	-0.5	2
COc1ccc(C(CNC(=O)c2cccc(S(=O)(=O)Nc3ccc(F)cc3)c2)N2CCCC2)cc1 (stereo not drawn)	-2.7%	-0.5	-3	4	-0.8	0
CCn1ncc(CN2CCC(C(=O)Nc3cccc(-c4cccc(F)c4)c3)CC2)c1C	2.6%	-0.3	nt	-5	-2.9	16
O=C(O)CCCCCCCCCCC1CCC(O)C1O (stereo not drawn)	1.1%	-0.2	7	-5	0.7	1
CON(C)C(=O)CC(CNC(=O)OC(C)(C)C)c1ccc(Cl)cc1 (stereo not drawn)	3.6%	-0.6	7	4	-0.6	1

Bioassay records deposited in PubChem by National Center for Advancing Translational Sciences (NCATS).
